Compound activity deposited in PubChem by several laboratories.
RGS4 pot: RGS4 potentiation or activation | B-score at 10 µM | hit rate 0.92% among 310,000 | HEK293 M3R/inducible RGS4, carbachol calcium flux Fluo4; active compounds read low | AID 463111;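 active = B-score of the integrated calcium signal more than 4 SD below the library mean, with starting fluorescence not abnormally high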;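 also: negative B-score means reduced calcium response which marks RGS4 activation or potentiation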
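System: HEK293 FlpIn-TREx cells, stable M3R, doxycycline-inducible RGS4. Timing: overnight RGS4 induction, 30 min dye load 37 °C, 20 min compound RT. Also added: carbachol, ECmax concentration. Measured by: Fluo4 fluorescence kinetic imaging of calcium. Evaluation: integrated calcium ratio converted to B score.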
KCNQ1 pot: human KCNQ1 channel potentiation or activation; P51787; CHO-K1 KCNQ1, thallium flux FluxOR fluorescence; active compounds read high; B-score at 10 µM; hit rate 0.35% among 310,000; AID 2648;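 active = fluorescence ratio B-score, a plate-corrected score, at least three library SD, with initial intensity B-score within 5 SD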
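System: CHO-K1 cells stably expressing KCNQ1 / Medium: assay buffer for compound exposure, DMSO matched across wells / Reagent: thallium- and potassium-containing depolarizing buffer / Compound: one concentration, matched DMSO / Incubation: 20 min compound pretreatment at room temperature / Measured by: kinetic FluxOR fluorescence, 10 s baseline plus 110 s post-stimulus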
KCNQ1 block: human KCNQ1 channel inhibition; AID 2642; B-score at 10 µM; hit rate 1.3% among 310,000; CHO-K1 KCNQ1, FluxOR thallium flux fluorescence; active compounds read high;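 active = compounds whose thallium flux B-score, printed positive for inhibition, exceeds three library SD while starting fluorescence stays within three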;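 also: channel opened by potassium depolarization with thallium stimulus after 20 min compound exposure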
GSK3B inh: inhibitors of human GSK3beta kinase; P49841; GST-GSK3beta kinase, ADP-Glo luminescence, 60 min; active compounds read low; activity score (negative = inhibition), % at 10 µM; hit rate 0.038% among 300,000; AID 2097;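 active = more than half of replicate wells score below -50%, meaning over 50% inhibition versus plate controls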;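 also: 0% = median DMSO wells and -100% = median GW8510 positive control wells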
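Test system: GST-tagged human GSK3beta kinase, cell-free; evaluation: activity score scaled between in-plate DMSO and GW8510 controls; measured by: ADP-Glo luminescence; incubation: 60 min reaction, RT; benchmarks: DMSO and 20 µM GW8510; reagent: peptide substrate plus 25 µM ATP (final); medium: Tris/MgCl2 kinase buffer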
hERG rescue: shields human hERG channel from block by proarrhythmic agents. Q12809. CHO-hERG, FluxOR thallium flux, dofetilide IC70 present. activation (rescue from dofetilide block), less the hit threshold, % at 10 µM. hit rate 0.51% among 310,000;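 active = activation above the mean of controls blocked by dofetilide plus 5 SD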;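 also: thallium influx through hERG after potassium depolarization seen as dye fluorescence rise; in these data hits start at about 4.7%; inactives centre near -7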
KCNK3 inh: human KCNK3 channel inhibition, primary screen. hit rate 0.84% among 340,000. AID 602410. O14649. B-score at 10 µM. CHO-KCNK3 thallium flux, FluxOR fluorescence; active compounds read low;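 active = B-score under library mean minus 4 SD, starting fluorescence ratio at most library mean plus 5 SD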;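 also: more negative B-score means stronger inhibition of thallium flux through KCNK3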
PolyA inhibitor: inhibitors of polyadenylation in S. cerevisiae; S. cerevisiae SKY197-pL101 polyadenylation reporter, beta-gal luminescence; efflux-impaired pdr1/pdr3 knockout yeast; score 100 = 6 SD above DMSO; hit rate 0.02% among 300,000; AID 1875; calls only at 12 µM;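 active = lowest replicate activity score at least 50, where 100 means six control SD above control mean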;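 also: yeast exposed to compound for 9 h at 30 °C; higher score means more reporter readthrough which indicates perturbed polyadenylation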
RGS4 inh: inhibitors of human RGS4 | P49798 | hit rate 0.45% among 310,000 | B-score at 10 µM | HEK293 M3R/RGS4 inducible, Fluo-4 calcium flux; active compounds read high; triggered by carbachol at its EC20;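 active = B-score, a plate-corrected calcium signal, over three deviations above library mean, with baseline fluorescence within five deviations of library mean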;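 also: RGS4 expression induced by doxycycline in cells with stable M3 receptor; B-score is computed from the integrated fluorescence ratio over baseline after carbachol; higher B-score means a larger calcium signal and so more RGS4 inhibition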
Dyrk1A ADPGlo: inhibitors of rat Dyrk1A kinase; Q63470; ADP-Glo luminescence, NFATc1 peptide; inhibition, % at 12.5 µM; hit rate 0.43% among 310,000; in the data active = inhibition above about 50%;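 also: plate controls were vehicle with enzyme for no effect and no enzyme for full effect; many of its hits are not listed in these tables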
GSK3 alpha inh: human GSK-3 alpha kinase inhibition | ADP-Glo luminescence, 60 min | inhibition, % at 10 µM | hit rate 0.1% among 320,000 | AID 2650;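 in the data active = inhibition above about 50%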;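 also: GST-tagged GSK-3 alpha with peptide substrate and 25 µM ATP; 0% = DMSO neutral wells and 100% = GW8510 positive control wells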
Target sequence (P49840 whole entry, looked up): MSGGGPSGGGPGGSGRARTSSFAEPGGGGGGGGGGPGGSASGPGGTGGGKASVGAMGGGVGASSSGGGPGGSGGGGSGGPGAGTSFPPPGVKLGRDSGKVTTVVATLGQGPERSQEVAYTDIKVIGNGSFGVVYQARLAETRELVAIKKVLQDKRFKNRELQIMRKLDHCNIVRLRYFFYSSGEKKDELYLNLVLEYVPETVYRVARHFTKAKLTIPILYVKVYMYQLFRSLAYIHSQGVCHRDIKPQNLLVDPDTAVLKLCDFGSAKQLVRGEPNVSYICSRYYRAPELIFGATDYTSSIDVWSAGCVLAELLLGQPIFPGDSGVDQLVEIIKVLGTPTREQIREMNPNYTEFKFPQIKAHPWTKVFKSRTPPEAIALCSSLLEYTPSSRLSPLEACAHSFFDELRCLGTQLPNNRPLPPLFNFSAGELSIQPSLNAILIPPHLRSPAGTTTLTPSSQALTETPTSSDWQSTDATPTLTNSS
* hit, by the source's call; i = inactive; . = not tested or not shown. Not all compounds are listed; count on the stated rates, not on these rows.

# | Molecule | hERG rescue | Dyrk1A ADPGlo | GSK3 alpha inh | RGS4 pot | KCNQ1 block
1 | CCOC(=O)[C@@H]1[C@H]2COc3ccc(Br)cc3[C@H]2N2C(=O)N(c3ccc(F)cc3)C(=O)[C@]12C | -7 | -6 | -1 | i | i
2 | O=C(N/N=C/c1ccccc1OC(=O)c1ccc2c(c1)OCO2)c1ccccc1 | -8 | -5 | . | i | i
3 | Cc1oc2c(C)c3oc(=O)c(CCC(=O)O)c(C)c3cc2c1-c1ccccc1 | -6 | -1 | -6 | i | i
4 | O=c1c2c(-c3cccs3)csc2ncn1/N=C/c1ccc(OC(F)F)cc1 | -10 | 11 | . | i | i
5 | O=[N+]([O-])c1cc(Cl)ccc1NCCc1ccccn1 | -4 | 15 | 1 | i | i
6 | Cc1ccc(C(=O)Oc2cccc(NC(=O)c3ccccc3)c2)cc1C | -11 | -6 | -2 | i | i
7 | CC(C)c1ccc(NC2CCCN(C(=O)CC3CCCC3)C2)cc1 (configuration not stated) | -15 | 2 | 0 | i | i
8 | Cc1ccc(S(=O)(=O)N2CCCCC2)cc1NC(=O)COC(=O)Cc1c(F)cccc1Cl | -1 | -2 | 0 | i | i
9 | CCN(CC)S(=O)(=O)c1ccc(NCC2COc3ccccc3O2)c([N+](=O)[O-])c1 (configuration not stated) | -13 | -3 | -2 | i | i
10 | CC(C(=O)NC1C=CS(=O)(=O)C1)N1C(=O)/C(=C/c2ccc(Cl)cc2)SC1=S (configuration not stated) | -8 | 39 | -3 | i | i
11 | COc1ccc2sc(N(CCN(C)C)C(=O)c3ccc4ccccc4c3)nc2c1 | -13 | -3 | 2 | i | i

# | GSK3B inh | KCNQ1 pot | RGS4 inh | KCNK3 inh | PolyA inhibitor
1 | 0 | i | i | i | i
2 | -14 | i | i | i | i
3 | 1 | i | i | i | i
4 | -5 | i | i | i | i
5 | 2 | i | i | i | i
6 | -1 | i | i | i | i
7 | 1 | i | i | i | i
8 | 0 | i | i | i | i
9 | 1 | i | i | i | i
10 | 1 | i | i | i | i
11 | 0 | i | i | i | i

10 successive entries out of the list so far:
# | Molecule | hERG rescue | Dyrk1A ADPGlo | GSK3 alpha inh | RGS4 pot | KCNQ1 block
1 | CCOC(=O)[C@@H]1[C@H]2COc3ccc(Br)cc3[C@H]2N2C(=O)N(c3ccc(F)cc3)C(=O)[C@]12C | -7 | -6 | -1 | i | i
2 | O=C(N/N=C/c1ccccc1OC(=O)c1ccc2c(c1)OCO2)c1ccccc1 | -8 | -5 | . | i | i
3 | Cc1oc2c(C)c3oc(=O)c(CCC(=O)O)c(C)c3cc2c1-c1ccccc1 | -6 | -1 | -6 | i | i
4 | O=c1c2c(-c3cccs3)csc2ncn1/N=C/c1ccc(OC(F)F)cc1 | -10 | 11 | . | i | i
5 | O=[N+]([O-])c1cc(Cl)ccc1NCCc1ccccn1 | -4 | 15 | 1 | i | i
6 | Cc1ccc(C(=O)Oc2cccc(NC(=O)c3ccccc3)c2)cc1C | -11 | -6 | -2 | i | i
7 | CC(C)c1ccc(NC2CCCN(C(=O)CC3CCCC3)C2)cc1 (configuration not stated) | -15 | 2 | 0 | i | i
8 | Cc1ccc(S(=O)(=O)N2CCCCC2)cc1NC(=O)COC(=O)Cc1c(F)cccc1Cl | -1 | -2 | 0 | i | i
9 | CCN(CC)S(=O)(=O)c1ccc(NCC2COc3ccccc3O2)c([N+](=O)[O-])c1 (configuration not stated) | -13 | -3 | -2 | i | i
10 | CC(C(=O)NC1C=CS(=O)(=O)C1)N1C(=O)/C(=C/c2ccc(Cl)cc2)SC1=S (configuration not stated) | -8 | 39 | -3 | i | i

# | GSK3B inh | KCNQ1 pot | RGS4 inh | KCNK3 inh | PolyA inhibitor
1 | 0 | i | i | i | i
2 | -14 | i | i | i | i
3 | 1 | i | i | i | i
4 | -5 | i | i | i | i
5 | 2 | i | i | i | i
6 | -1 | i | i | i | i
7 | 1 | i | i | i | i
8 | 0 | i | i | i | i
9 | 1 | i | i | i | i
10 | 1 | i | i | i | i
